Mtb growth – Confirmatory growth inhibition assay against Mycobacterium tuberculosis H37Rv, potency (AID 1949); inhibition, % at 10 µg/mL, or IC50 in µg/mL where a hit was titrated; most inactive calls were filed without a number and no value below 0 was filed; 1.6% of 100,000 active;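 active = confirmed in a dose series; inconclusive = about 50% or more but not retested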;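 note: bacteria grown 7 days with compound before Alamar blue readout; 0% = untreated bacteria and 100% = reference antibiotic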
The depositor's hits bear a star; i = inactive; ? = inconclusive. Some of the compounds tested (hit frequency here may not be typical).

SMILES	Mtb growth
CCc1cc(=O)oc2cc(C)cc(OCc3ccc(Cl)cc3)c12	i
Cc1sc2ncn(CC(=O)N3CCCC3)c(=O)c2c1C	4%
C=CCc1cccc(C)c1OCCCCNCCCC	i
COC(C(=O)Nc1ccc(S(=O)(=O)Nc2ccc(C)c(C)c2)cc1)c1ccccc1 (centres undefined)	i
N=c1c(C(=O)NC2CCCCC2)cc2c(=O)n3ccccc3nc2n1Cc1cccnc1	2%
O=C(CSCc1cc(=O)[nH][nH]1)Nc1ccc(F)cc1	i
CC(=O)NC1C(=O)Nc2c(C)ccc(Cl)c21 (centres undefined)	i
COc1nc(C)ccc1-c1noc(-c2ccccc2C)n1	5%
CCOC(=O)c1c(NC(=O)c2cnccn2)sc2c1CCCC2	i
Cc1ccc(C(=O)Nc2sc3c(c2C(=O)N2CCC(C)CC2)CCCC3)cc1	1%
COc1ccc(NC(=S)Nc2ccccc2-c2ccccc2)c(OC)c1	i
COCCNc1ncnc2c1cnn2Cc1ccc(Cl)cc1	3%
COc1ccc(OC)c(N(CC(=O)Nc2ccccc2C(=O)NC(C)C)S(=O)(=O)c2ccc(OC)c(OC)c2)c1	i
O=C(CCSc1ccccc1)NC1CCCCCC1	i
Clc1ccc(OCCn2c(-c3ccco3)nc3ccccc32)cc1	19%

Overlap with the part before: 3 entries; new compounds follow.
SMILES	Mtb growth
COc1ccc(OC)c(N(CC(=O)Nc2ccccc2C(=O)NC(C)C)S(=O)(=O)c2ccc(OC)c(OC)c2)c1	i
O=C(CCSc1ccccc1)NC1CCCCCC1	i
Clc1ccc(OCCn2c(-c3ccco3)nc3ccccc32)cc1	19%
CCCn1nnc(NC(=O)COc2ccc(Cl)cc2C)n1	i
Cc1cc(C)nc(SCC(=O)N=Nc2c(O)[nH]c3ccccc23)n1	i
O=C(CCCC(=O)Nc1ccc(F)c(F)c1)Nc1ccc(F)c(F)c1	i
CC(=O)c1cccc(OCc2ccc(Br)cc2)c1	i
CC(C)(C)CC(=O)NC(=S)N1CCCCCC1	i
CN(CC(=O)NCCCN1CCOCC1)S(=O)(=O)c1cc(Cl)ccc1Cl	i
Cc1nc(NC(=O)COc2ccc(Cl)cc2)ccc1Br	i
CCCCNS(=O)(=O)c1ccc(NC(=O)c2ccc(OC(C)=O)cc2)cc1	i
CCOc1ccc(N(CC(=O)NC2CCCCC2)S(=O)(=O)c2ccc(OC)c(OC)c2)cc1	i
NC(=O)C1CCN(C(=S)c2ccccc2)CC1	i
COc1ccccc1CCNC(=O)c1sc2cccc(F)c2c1Cl	5%
CCOC(=O)C1=C(C)NC2=C(C(=O)CCC2)C1c1ccccc1 (centres undefined)	4%
C=CCNC(=O)c1c(-c2c(F)cccc2Cl)noc1C	i
COc1cc(Br)ccc1NC(=O)CCC1CCCCC1	2%
CCOc1ccccc1OCCOCCN1CCN(Cc2ccccc2)CC1	i
COC(=O)c1sc(NC(=O)c2ccc([N+](=O)[O-])c(C)c2)c(C(=O)OC)c1C	i
COc1ccc(NC(=S)c2ccc3ccccc3n2)cc1	12%
CCc1ccc(N(CC(=O)Nc2ccccc2OC)S(C)(=O)=O)cc1	i
CCCC(C)NC(=O)CN(c1ccc(F)cc1)S(=O)(=O)c1ccc(C)cc1 (centres undefined)	i
CC1(C)CC2CC(C)(CN2C(=O)COc2cccc3ccccc23)C1 (centres undefined)	4%
COc1cc2c(cc1C1NC(=S)NC(C)=C1C(=O)N(C)C)CCCC2 (centres undefined)	i
CN1CCN(S(=O)(=O)c2ccc(NC(=O)c3cc4cc(Br)ccc4oc3=O)cc2)CC1	i
O=C(CN(Cc1ccc(Cl)c(Cl)c1)S(=O)(=O)c1ccccc1)Nc1ccc2c(c1)OCO2	2%
COc1ccccc1N1CCN(CCC(=O)Nc2ccc(C)c(C)c2)CC1	i
Cc1ccc(-n2c3c(cc(C(=O)NCc4ccco4)c2=O)C(=O)CC(C)(C)C3)cc1	i
COc1cc(CO)c(Br)cc1OCc1ccc(Cl)cc1Cl	i
CN1CCN(C(=O)COc2ccc(S(=O)(=O)NCc3ccccc3)cc2Cl)CC1	i
Cc1cc(Br)cc(C)c1NC(=O)CSc1nnc(COc2ccc(C(C)C)cc2)o1	i
CCOC(=O)c1ccc(NC(=S)NC(=O)c2cc(C)cc(C)c2)cc1	i
Cc1ccc(N(CC(=O)Nc2ccccc2C(=O)NCC(C)C)S(=O)(=O)c2ccccc2)cc1C	i
COc1ccc([N+](=O)[O-])cc1NC(=O)C1CCCO1 (centres undefined)	i
COc1ccc(Cl)cc1NC(=O)c1cc(-c2ccc(C)o2)nc2ccccc12	i
O=C(c1cccs1)c1cn(CC(=O)N2CCCCC2)c2ccccc12	i
Cc1ccc2ccccc2c1COC(=O)c1nonc1N	i
COC(=O)c1ccc(OCCCN2CC(C)OC(C)C2)cc1 (centres undefined)	3%
CN1CCN(C(=O)NC23CC4(C)CC(C)(CC(C)(C4)C2)C3)CC1	i
O=C(O)c1nn2c(C(F)(F)F)cc(-c3ccccc3)nc2c1Cl	i
COc1ccc(OC)c(NC(=O)CSc2nnc(-c3ccc([N+](=O)[O-])cc3)n2C)c1	i
Cc1ccc(-c2cc(C(=O)Nc3ccccc3C(N)=O)c3ccccc3n2)cc1C	23%
CC1(C)C(=O)OC(c2ccc(Br)cc2)C2(CCCC2)C1=O (centres undefined)	i
CN(C)CCCCOc1ccc(C(C)(C)c2ccccc2)cc1	?
O=C(CN1CCCCC1)Nc1cccc(I)c1	i
Cn1c(=O)c2c(nc(Oc3cc(Cl)ccc3Cl)n2C)n(C)c1=O	i
CCC1(C(=O)c2ccc(Cl)cc2)C2c3ccccc3OC(=O)C21C(=O)N1CCOCC1 (centres undefined)	i
C=CCn1c(CC(=O)Nc2cccc(OC)c2)nnc1SCc1ccc(Cl)cc1	2%
Cc1ccc(NC(=O)C2CCN(C(=O)c3ccc(Cl)cc3Cl)CC2)cc1C	i
COc1ccccc1Nc1cc(N2CCOCC2)c2nonc2c1[N+](=O)[O-]	i
Cc1ccc(OCC(=O)Nc2ccc(-c3nc4cc(C)ccc4o3)cc2)c(C)c1	i
COC(=O)c1ccccc1NC(=O)CN(c1ccc(C)c(C)c1)S(C)(=O)=O	i
Cc1ccc2[nH]c3c(c2c1)CCCC3NCc1ccc(F)cc1 (centres undefined)	i
O=C(Nc1cccc(Br)c1)C1CCN(C(=O)c2cccc(Cl)c2)CC1	i
Cc1cc(C)nc(NC(=O)Cc2c(F)cccc2Cl)c1	i
Cc1ccc(S(=O)(=O)Oc2ccc3c(C)c(C)c(=O)oc3c2C)cc1	7%
CCc1ccc(C2c3cc(N)ccc3-c3oc(N)nc32)cc1 (centres undefined)	22%
NS(=O)(=O)c1ccc(NC(=O)CN2C(=O)c3cccc4cccc(c34)C2=O)cc1	i
COc1cc(CO)ccc1OCc1ccccc1C	4%
COc1ccc(C(=O)Oc2ccc(Cl)cc2)cc1I	i
CC1CCN(CCn2c(=S)[nH]c3ccccc3c2=O)CC1	i
CC(=O)c1cccc(NC(=O)CSCc2ccc([N+](=O)[O-])cc2)c1	0%
O=C(Nc1cc(Cl)ccc1O)c1cccc(S(=O)(=O)N2CCCCC2)c1	4%
New compounds follow
SMILES	Mtb growth
CCOC(=O)c1cccc(Nc2nc(C)cc(C)n2)c1	i
CCC(=O)N1c2ccccc2NC2=C(C(=O)CC(C)(C)C2)C1c1ccc(C(=O)OC)cc1 (centres undefined)	i
CC1CN(C(=O)C(c2ccccc2)c2ccccc2)CC(C)O1 (centres undefined)	i
CCOC(=O)c1cc(NC(=O)CSc2nnnn2-c2ccccc2)ccc1Cl	4%
COc1nc(N(C)C)nc(N2C(=N)N(c3ccc(Cl)c(Cl)c3)C(=O)C2C)n1 (centres undefined)	4%
CCCCC(=O)Nc1cccc(NC(=S)NC(=O)c2cccc(F)c2)c1	i
CCn1cc(Cl)c(-c2n[nH]c(=S)n2-c2cc(OC)ccc2OC)n1	3%
CCn1c(CNC(=O)c2ccc(Cl)cc2)nnc1SCC(=O)Nc1cc([N+](=O)[O-])ccc1C	i
O=C(NCc1ccccc1)C(Cc1ccccc1)N1C(=O)C2C3C=CC(C4CC34)C2C1=O (centres undefined)	i
Fc1ccc(NC(=S)Nc2ccccc2OC(F)F)cc1Cl	50%
CC1CCc2nc(NC(=S)Nc3ccccc3C(F)(F)F)sc2C1 (centres undefined)	6%
Cc1ccc(C(C)(C)C)c(OCCCNCCO)c1	i
O=C(CCc1ccccc1)Nc1ccc(Br)cn1	i
O=C(Cc1csc2nc3sc4c(c3c(=O)n12)CCCC4)NCCO	8%
OC1(CNCc2ccccc2)C2CC3CC(C2)CC1C3 (centres undefined)	i

6 entries from above, arranged by length of the SMILES, low to high:
SMILES	Mtb growth
O=C(CCc1ccccc1)Nc1ccc(Br)cn1	i
CCOC(=O)c1cccc(Nc2nc(C)cc(C)n2)c1	i
CC1CCc2nc(NC(=S)Nc3ccccc3C(F)(F)F)sc2C1 (centres undefined)	6%
O=C(Cc1csc2nc3sc4c(c3c(=O)n12)CCCC4)NCCO	8%
CCn1cc(Cl)c(-c2n[nH]c(=S)n2-c2cc(OC)ccc2OC)n1	3%
COc1nc(N(C)C)nc(N2C(=N)N(c3ccc(Cl)c(Cl)c3)C(=O)C2C)n1 (centres undefined)	4%

Going on with the list.
SMILES	Mtb growth
Cc1sc(NC(=O)COc2ccc(C(C)(C)C)cc2)c(C(N)=O)c1C	i
COC(=O)C1=C(C)NC(C)=C(C(=O)OC)C1c1ccccc1OC	i
C=CCN1C(=O)C(c2c(O)n(C)c3ccccc23)=NC1=S	13%
C=CCc1cc(Cl)ccc1OCCCN1CC(C)OC(C)C1 (centres undefined)	6%
CC(NCCOCCOc1ccccc1)c1ccccc1 (centres undefined)	i
COC(=O)c1ccc(NC(=O)Cc2ccc(F)cc2)cc1	i
O=C(Nc1ccc(OCC(=O)N2CCOCC2)cc1)c1ccccc1F	i
Cc1cc(NS(=O)(=O)c2cc(OCC(N)=O)c(C)cc2Cl)no1	i
O=C(c1ccc(F)cc1)N1CCN(c2ccc([N+](=O)[O-])c(N3CCCC3)c2)CC1	0%
CCOc1ccc(C(=O)NC(=S)Nc2ccc(-c3cn4ccccc4n3)cc2)cc1Cl	i
COc1ccc(C(=O)Nc2ccc(S(=O)(=O)N3CCCC3)cc2)cc1[N+](=O)[O-]	1%
O=C(c1cccnc1)N1CCN(C/C=C/c2ccccc2)CC1	i
CCOc1ccc(S(=O)(=O)NCC(=O)O)cc1	i
O=C(Nc1cccc([N+](=O)[O-])c1)C1CC(=O)N(c2ccc(F)cc2)C1 (centres undefined)	i
CSc1ccc(C(=S)N2CCN(c3cccc(Cl)c3)CC2)cc1	i
COc1ccc(C(=O)O/N=C(\N)c2cccnc2)cc1[N+](=O)[O-]	i
O=C(CS(=O)(=O)c1ccccc1)N1CCCCCC1	i
CC1CC(C)CN(c2oc(-c3ccccc3Cl)nc2C#N)C1 (centres undefined)	8%
O=C(NNC(=O)c1cc(Cl)ccc1O)Nc1cccc(C(F)(F)F)c1	3%
COC(=O)c1ccccc1NC(=O)C1CC(c2cc(Cl)c(OC)cc2OC)=NO1 (centres undefined)	i
O=c1cc(C(F)(F)C(F)(F)F)oc2ccc(Cl)cc12	1%
Cc1ccc(CNC(=O)C(=O)Nc2cc(Cl)cc(Cl)c2)cc1	i
COC(=O)C1=CN(Cc2ccc(OC)cc2)C=C(C(=O)OC)C1c1ccc(F)cc1	4%
COc1ccc(OC)c(S(=O)(=O)N2CCC(C(=O)Nc3c(C)cc(C)cc3C)CC2)c1	i
Cc1ccc(-c2nnc(SCC(=O)Nc3ccccc3OC(F)F)o2)cc1	2%
O=C(NNC(=O)NC1CCCCC1)NC1CCCCC1	i
O=c1oc2ccc(Br)cc2cc1-c1csc(NC2CCCCC2)n1	i
c1ccc2[nH]c(CCSCCc3nc4ccccc4[nH]3)nc2c1	i
CSc1ccc(C2c3c(oc4ccc(Br)cc4c3=O)C(=O)N2c2nccs2)cc1 (centres undefined)	i
COCCN1C(=O)C(O)=C(C(=O)c2ccc(C)o2)C1c1ccc(Cl)cc1 (centres undefined)	2%

Shown in markdown: entries from further up.
| SMILES | Mtb growth |
| --- | --- |
| O=C(Nc1cc(Cl)ccc1O)c1cccc(S(=O)(=O)N2CCCCC2)c1 | 4% |
| CCOC(=O)c1cccc(Nc2nc(C)cc(C)n2)c1 | i |

Other structures follow.
SMILES	Mtb growth
CCOc1ccccc1N(CC(=O)Nc1ccccc1C(=O)NCc1ccccc1)S(C)(=O)=O	i
CN(C)S(=O)(=O)N1CCN(CC(=O)Nc2ccc(F)cc2)CC1	i
CCOC(=O)C1=C(C)NC(=S)NC1c1ccccc1 (centres undefined)	i
O=C(CSC1CCCCC1)Nc1ccc(F)cc1	24%
O=C(Nc1ccc(-c2nc3ncccc3o2)cc1)c1ccc2c(c1)OCO2	i
COc1ccc(-c2nc(N)n(C(C)=O)n2)cc1	i
O=C(CN1C(=O)CCC1=O)Nc1cccc(C(F)(F)F)c1	4%
COc1cc(Br)c(C2CC(=O)Nc3cc(OC)c(OC)cc32)cc1OC (centres undefined)	i
Cc1cc(C)c(NC(=S)NC(=O)c2cc(I)ccc2Cl)c(C)c1	2%
COC(=O)C1=C(C)N(C)C(=O)NC1c1ccc(-c2ccccc2Cl)o1 (centres undefined)	i
CNCCCOc1c(Cl)ccc(C)c1C	i
COc1ccc2c(Cl)c(C(=O)Nc3ccc(S(=O)(=O)N4CCC(C)CC4)cc3)sc2c1	i
CC(Oc1ccc(NC(=O)c2cccc([N+](=O)[O-])c2)cc1)C(=O)c1cccc(Cl)c1 (centres undefined)	24%

Shown with each value named: three of the compounds above
> CN(CC(=O)NCCCN1CCOCC1)S(=O)(=O)c1cc(Cl)ccc1Cl
  Mtb growth: i
> Cc1nc(NC(=O)COc2ccc(Cl)cc2)ccc1Br
  Mtb growth: i
> CCCCNS(=O)(=O)c1ccc(NC(=O)c2ccc(OC(C)=O)cc2)cc1
  Mtb growth: i
